Source: PubChem (several laboratories)
CSC inhib – cancer stem cell viability inhibitors, primary screen, luminescence; cancer stem cell-like cells viability; inhibition, % at 7.5 µM; 1.1% of 300,000 active; AID 2717, 2010;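 active = mean at 75% or more and at least half the replicates too; inconclusive = mean and replicates disagree; tested in HMLE shEcad cells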;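 also: 0% = median of negative and 100% = median of positive control wells; the first replicate is given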
HIV Env fusion – inhibitors of HIV-1 Env-driven cell-cell fusion, primary screen, HeLa-JRFL effector, CEM21 target cells, luciferase | 1.1% of 360,000 active | inhibition, % at 12.3 µM;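 active = mean replicate inhibition score of at least 50 and every replicate individually at or above 50; inconclusive = only one of the two criteria met; inactive = mean below 50 and not all replicates reaching 50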;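 also: 0% = plate neutral controls and 100% = maraviroc near 300 nM; one replicate is shown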
MT1-MMP act inh – blockers of MT1-MMP proenzyme processing, primary screen, HT1080 RFP-PRO-GFP cells, GFP/RFP fluorescence; GFP/RFP ratio fluorescence, overnight; percent of plate control window, DMSO zero; GFP/RFP ratio change, % at 20 µM; 0.061% of 360,000 active; AID 651647, 2012;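 active = GFP/RFP ratio change of at least 30% with cell ATP level not reduced by more than half and red fluorescence within 50% of control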; also: strong numbers were not always called active
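Assay system: HT1080 RFP-PRO-GFP cells | Dosing: 20 µM single dose, 1% DMSO | Incubation: Cells overnight before dosing, compound overnight, 37 °C, 5% CO2 | Evaluation: GFP/RFP fluorescence ratio | Control set: DMSO-only wells and HT1080 RFP-L50D-GFP cell wells as references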
UUG fidelity – modulators of yeast start codon fidelity, primary screen, whole organism, S. cerevisiae, single point, plate reader; activity score, % at 18.7 µM; 0.13% of 350,000 active; S. cerevisiae UUG-firefly luciferase reporter, luminescence/redox ratio;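 active = replicate mean at a twofold rise or more, about +100% in these data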;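 also: firefly luciferase made from a UUG start codon reports start codon fidelity; reporter light over untreated wells divided by growth signal over untreated wells; some hits fall short of that in this replicate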
eIF4H inh – human eIF4H binding inhibitors, primary screen, translation initiation inhibitor project, biochemical, uHTS, fluorescence polarization. inhibition, % at 35 µM. eIF4H fluorescence polarization binding assay. Eukaryotic translation initiation factor 4H (Homo sapiens), Q15056. 0.94% of 290,000 active;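 active = 50% or more with normal probe brightness, or confirmed in later tests; inconclusive = above 50% with abnormal brightness, or retests that disagree; inactive = below 50% or failed in later tests; about a fifth of its hits are not listed in these tables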;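 also: calls also rest on retests at 20 µM and on dose response follow-up; 0% = protein and probe with vehicle and 100% = probe without protein; strong numbers were not always called active; many hits fall short of the cut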
PABP FP inh – PABP poly(A) RNA binding inhibitors, primary screen, biochemical, fluorescence polarization, uHTS | 1% of 290,000 active | Polyadenylate-binding protein 1 (Homo sapiens), P11940 | inhibition, % at 35 µM;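 active = 50% or more with normal probe brightness, or confirmed in later tests; inconclusive = above 50% with abnormal brightness, or retests that disagree; inactive = below 50% or failed in later tests; about a fifth of its hits are not listed in these tables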;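 also: calls also rest on retests at 20 µM and on dose response follow-up; controls were probe without protein and protein plus probe with vehicle; some compounds called inactive have numbers as strong as hits; many hits fall short of the cut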
Target sequence (P11940 whole entry, looked up): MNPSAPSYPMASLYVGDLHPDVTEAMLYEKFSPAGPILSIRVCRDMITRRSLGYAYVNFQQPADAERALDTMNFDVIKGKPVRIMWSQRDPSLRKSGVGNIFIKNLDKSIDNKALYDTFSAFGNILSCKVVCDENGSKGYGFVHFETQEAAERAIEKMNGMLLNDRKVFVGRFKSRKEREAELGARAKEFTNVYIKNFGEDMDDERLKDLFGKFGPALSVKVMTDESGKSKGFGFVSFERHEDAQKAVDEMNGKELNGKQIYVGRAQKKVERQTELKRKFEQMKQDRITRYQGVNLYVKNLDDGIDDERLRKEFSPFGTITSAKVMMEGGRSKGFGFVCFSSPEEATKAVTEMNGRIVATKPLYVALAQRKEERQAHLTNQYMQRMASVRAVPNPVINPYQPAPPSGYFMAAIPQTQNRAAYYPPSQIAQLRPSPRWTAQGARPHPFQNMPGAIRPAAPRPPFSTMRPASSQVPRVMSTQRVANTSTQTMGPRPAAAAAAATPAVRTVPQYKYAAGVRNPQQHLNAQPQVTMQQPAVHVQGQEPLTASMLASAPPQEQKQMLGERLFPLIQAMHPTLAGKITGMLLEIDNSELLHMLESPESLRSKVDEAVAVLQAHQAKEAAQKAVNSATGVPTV
Rce1 inhib – yeast Rce1p protease inhibitors, primary screen, biochemical, fluorescence, cell-free homogeneous. CAAX prenyl protease 2 (Saccharomyces cerevisiae (strain ATCC 204508 / S288c)), Q03530. yeast membranes, quenched prenylated peptide cleavage fluorescence. calls only. 0.27% of 290,000 active;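 active = fall in fluorescence gain of 50% or more versus controls, with final raw signal at or below 3038400; inconclusive = same 50% fall but final raw signal above 3038400; inactive = fall in fluorescence gain under 50%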;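 also: plate controls were neutral control wells for no effect and wells lacking membranes for full effect; tested at 10 µM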
eIF4H inh retest – also measured in eIF4H inh; calls as there; inhibition, %; compound at 20 µM; confirmation average;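 mean of two retest wells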
PABP FP inh retest – second read-out of PABP FP inh, no call of its own (marks repeat the call); inhibition, %; compound at 20 µM; confirmation repeats;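 mean of two retest wells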
MT1-MMP act inh RFP – further read-out of MT1-MMP act inh, marked with its call; RFP signal change, %; measured here: RFP expression control read;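 0 = vehicle wells; hits needed this value within 50% of zero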
* = called active by the depositor; i = inactive; u = inconclusive; x = not tested or not shown; & = joins results of further samples; [ ] = remark or other dose. A portion of the library (hit frequency here may not be typical).

SMILES	CSC inhib	HIV Env fusion	MT1-MMP act inh	MT1-MMP act inh RFP	UUG fidelity	eIF4H inh	PABP FP inh	Rce1 inhib	others
COc1cc(-n2cnnn2)ccc1S(=O)(=O)N1CCOCC1	-8.7	-22.7	0.4	6.6	-4.3	1.7	-0.2	i
CCCOc1ccc(-c2nn(-c3ccccc3)cc2/C=C2\SC(N)=NC2=O)cc1	-4.0	19.2	1.2	4.8	x	-3.4	28.2	i
COc1ccc(-c2nc(CS(=O)CC(=O)NC3CCCCC3C)c(C)o2)cc1 (stereo not given)	-18.0	-2.6	0.3	3.4	-10.9	-5.0	8.6	i
Cc1ccc(Nc2nc(N)c3ccccc3n2)cc1C	30.3	-160.8	28.5	-6.4	-54.4	-5.5	-11.8	i
O=C(CCC(=O)N1CCSc2ccccc21)Nc1cccc(F)c1	-11.8	-63.0	3.4	-1.6	-13.6	-6.4	-9.8	i
COc1ccccc1/C=N/NC(=O)c1nnn(-c2nonc2N)c1-c1ccccc1	4.2	x	-2.0	4.8	-13.1	-1.2	-4.3	i
Cn1c(=O)c2c(nc(NNC(=O)C(F)(F)F)n2C)n(C)c1=O	-10.3	-13.9	0.9	2.7	-14.2	4.0	-1.6	i
CNC[C@@H]1Oc2ccc(NC(=O)Nc3c(C)noc3C)cc2CC(=O)N([C@H](C)CO)C[C@H]1C	x	-22.5[16.7 µM]	2.3	1.2	4.3&-20.1	x	x	x
Cc1csc(NC(=O)CCC(=O)N(CC(=O)NC2CCCCC2)c2ccccc2)n1	-11.0	0.1	-3.4	-1.7	6.2	1.6	1.5	i
C#CCOCCOCCOCCNc1nc(N2CCN(C(=O)Cn3cc(CCCCN)nn3)CC2)nc(N2CCN(C(=O)Cn3cc(CC(C)O)nn3)CC2)n1 (stereo not given)	-12.2	-13.2	-3.5	-0.4	7.5	23.2	-3.8	i
O=C(CP(=O)(c1ccccc1)c1ccccc1)Nc1cccc(CP(=O)(c2ccccc2)c2ccccc2)c1	10.5	12.1	-5.4	-5.7	x	-1.9	1.3	i
COCCCN=Cc1c(C)[nH]n(-c2ccc(Br)c(C)c2)c1=O	21.2	-26.1	6.6	7.3	x	1.4	-0.3	i
CCCNC(=O)C1(C)CCCN(C(=O)c2ccc3snnc3c2)C1 (stereo not given)	x	-3.3	0.9	3.3	-14.5	x	x	x
O=C1C2C3CCC(C3)C2C(=O)N1Cc1ccco1 (stereo not given)	-10.4	7.6	7.4	4.6	x	7.6	-7.1	i
COc1cccc(C(=O)NCCCNC(=O)c2cccc(OC)c2)c1	-7.7	19.1	2.2	1.1	-9.3	-2.8	-5.5	i
CCc1cccc(C)c1NC(=O)COC(=O)Cn1c(C)csc1=O	-7.5	4.9	x	x	x	x	x	i
C/C(N)=C(/C#N)C(=O)COC(=O)c1cc(-c2ccc(C)cc2)nc2ccccc12	101.4*	5.6	0.1	1.4	x	-8.3	0.3	i
O=S(=O)(Nc1ccc2c(c1)oc1ccccc12)N1CCCC1	-10.3	x	2.2	-0.5	10.0	-3.8	-3.5	i
COc1ccc(CC(=O)Nc2ccc(-c3nnc(-c4ccccc4)o3)cc2)cc1OC	x	x	10.6	0.8	-1.9	-47.9	-66.4	i
CC(Oc1ccc2c(-c3ccccc3)cc(=O)oc2c1)C(=O)NCc1ccccn1 (stereo not given)	-16.4	x	4.6	-2.8	-15.7	-7.7	-2.1	x
Cc1ccc(C)c(N(C)S(=O)(=O)c2ccc3[nH]cc(C(=O)NCCN4CCOCC4)c(=O)c3c2)c1	-0.9	x	-2.3	-7.0	-18.9	-0.7	-3.5	i
O=C(Cn1cc([N+](=O)[O-])cn1)NCc1ccccc1	-11.1	-166.8	0.3	1.3	-14.9	-6.2	-8.9	x
CCOC(=O)N1CCC(N(CCN(C)C)C(=S)Nc2cc(Cl)ccc2C)CC1	4.9	10.5	4.0	0.2	-21.9	-2.0	83.6	i	eIF4H inh retest=40.5;PABP FP inh retest=47.1
COc1ccc(OC2C(=O)N(Cc3ccc(F)cc3)C2c2ccc(OC)c(OC)c2)cc1 (stereo not given)	x	x	0.6	-2.8	-2.6	-7.0	-3.2	i
CSC1=NC(C(Cl)(Cl)Cl)N=C(c2ccc(C)cc2)N1 (stereo not given)	56.8	15.7	-1.8	-12.7	x	-7.6	3.3	i
CCn1c(C)nc2cc(C(=O)N/N=C(\C)c3ccc(N4CCOCC4)cc3)ccc21	-13.9	10.2	4.0	4.4	x	-0.6	2.2	i
N/C(=N\OC(=O)c1ccco1)c1ccc(Cl)cc1	-13.2	-35.0	-5.6	2.3	-18.9	-5.8	1.9	i
O=C(CSc1ccc(-c2cccnc2)nn1)N1CCCCCC1	-10.1	8.2	5.6	4.1	-14.8	2.5	6.9	i
O=C(CC1SCCNC1=O)Nc1cc(Cl)cc(Cl)c1 (stereo not given)	x	x	0.7	-1.2	-21.3	-9.8	0.5	u
O=C(Nc1nc2cc3c(cc2s1)OCO3)C1CC1	1.8	4.9	-0.1	-21.2	-5.4	1.9	-15.4	i

By substructure: the compounds so far with a furan ring, fused or not
SMILES	CSC inhib	HIV Env fusion	MT1-MMP act inh	MT1-MMP act inh RFP	UUG fidelity	eIF4H inh	PABP FP inh	Rce1 inhib	others
O=C1C2C3CCC(C3)C2C(=O)N1Cc1ccco1 (stereo not given)	-10.4	7.6	7.4	4.6	x	7.6	-7.1	i
O=S(=O)(Nc1ccc2c(c1)oc1ccccc12)N1CCCC1	-10.3	x	2.2	-0.5	10.0	-3.8	-3.5	i
N/C(=N\OC(=O)c1ccco1)c1ccc(Cl)cc1	-13.2	-35.0	-5.6	2.3	-18.9	-5.8	1.9	i

The results go on.
SMILES	CSC inhib	HIV Env fusion	MT1-MMP act inh	MT1-MMP act inh RFP	UUG fidelity	eIF4H inh	PABP FP inh	Rce1 inhib	others
O=C(Nc1ccc(Cl)cn1)c1ccc(-c2ccc(Cl)c(Cl)c2)o1	27.0	x	-9.1	-7.7	x	x	x	i
CCOC(=O)N1CCN(C(=O)c2ccc3ccccc3c2)CC1	-5.7	8.6	1.0	-0.8	-10.4	1.1	-4.0	i
COc1ccccc1NC(=O)CSc1nnc(Cn2cnc3ccccc32)o1	-8.3	-13.9	-7.5	-2.5	x	2.7	-0.1	i
Nc1ccccc1CNc1nc(NCCO)nc2c1ncn2CCN1CCOCC1	16.5	8.5	3.6	1.5	-15.6	9.4	10.5	i
COC(=O)Cn1ncn2cccc2c1=O	-10.4	x	2.5	2.4	x	-9.0	-4.3	i
COc1ccccc1-c1noc(CCC(=O)Nc2ccccc2Cl)n1	-2.6	x	-3.3	2.5	-9.3	8.8	28.4	i
COC(=O)Nc1ccc(S(=O)(=O)Nc2cc(C(F)(F)F)c[nH]c2=O)cc1	0.4	-10.6	5.5	3.7	2.1	8.0	8.1	i
COc1ccc2c(c1)OC[C@H]1[C@H]2N2C(=O)c3cc(Cl)ccc3NC(=O)[C@@]2(C)[C@H]1c1ccccc1	16.3	x	-23.0	-15.5	-7.1	x	x	x
COc1ccc(CN2C(=O)c3ccccc3C(/C=N\OCc3ccc(F)cc3)C2=O)cc1 (stereo not given)	-10.1	x	-2.8	-2.2	-65.5	3.1	12.4	i
O=S(=O)(Cc1ccccc1)N1CCCCC1	-14.3	x	-2.8	0.7	-9.0	2.8	8.4	i
O=C(CSc1ccccc1C(=O)N1CCCCC1)NCC1CCCCC1	-11.0	-29.0	-1.4	-1.3	5.4	-6.3	21.2	i
CCN(CC)C(=S)SCC(=O)Nc1nc(=O)c2ccccc2s1	-9.1	-16.1	3.6	5.3	x	-9.2	0.7	i
CCOC(=O)NC(Nc1ccc(S(N)(=O)=O)cc1)(C(=O)OCC)C(F)(F)F (stereo not given)	-11.8	x	-2.0	1.9	-17.3	-9.5	-11.7	i
Nc1[nH]ncc1S(=O)(=O)c1ccccc1	-8.3	-5.7	10.3	7.7	-7.3	-0.8	3.2	i
O=C(c1ccc(S(=O)(=O)Nc2ccccc2)cc1)N1CCC1	-8.1	-0.9	13.0	-0.5	-4.4	x	x	i
Clc1ccc(C(c2nnnn2C2CCCCC2)N(Cc2cccnc2)Cc2ccco2)cc1 (stereo not given)	x	x	-31.9	-29.5	-1.5	-5.0	-4.4	i
O=C(COc1ccc(Cl)cc1Cl)N/N=C/c1ccc(OC2OC(CO)C(O)C(O)C2O)cc1 (stereo not given)	-7.6	0.7	9.0	-6.4	2.3	3.9	3.4	i
Clc1ccc2nc(-c3ccccc3)c(CN3CCOCC3)n2c1	-4.5	-3.3	0.0	1.3	-20.1	9.3	7.8	i
NC(CSCc1cccc(Br)c1)C(=O)O (stereo not given)	1.4	-4.4	2.6	-0.4	x	21.1	17.1	i
Cn1c(N/N=C2\CCCc3ccccc32)nc2c1c(=O)n(Cc1ccc(F)cc1)c(=O)n2C	x	3.6	9.2	-1.9	x	2.3	-6.9	i
Nc1nc(NCCO)nc(NCC2CCCO2)c1[N+](=O)[O-] (stereo not given)	-7.3	x	-5.6	1.3	-21.4	2.9	-1.7	i
CN(CCO)CCOCCOc1cccc2ccccc12	0.5	0.5	6.3	4.6	x	2.5	-5.1	i
C(=C\c1ccco1)/c1nc2ccccc2[nH]1	5.9	-165.2	-12.1	2.2	x	86.5	80.8	i	eIF4H inh retest=5.6;PABP FP inh retest=41.5
O=C1CN2CCC1C/C2=C\c1ccnc2c(Cl)cccc12 (stereo not given)	0.0	2.3	4.9	-5.7	-15.3	14.7	7.0	i
N#CCc1cnc2ccccc2n1	14.0	-9.5	1.3	14.5	-17.7	89.3*	52.5*	i
Cc1cc(C)c(C#N)c(SCC(O)COc2ccc(Br)cc2)n1 (stereo not given)	40.5	5.8	2.7	1.3	6.5	55.9	6.3	i	eIF4H inh retest=0.1;PABP FP inh retest=2.4
O=[N+]([O-])c1cc(F)c(N2CCOCC2)cc1N1CCCCC1	-11.8	x	3.5	-2.1	-4.8	-8.2	-0.3	i
O=Cc1coc2c(ccc3ccccc32)c1=O	11.7	x	x	x	x	6.1	16.3	i
OC[C@H]1OC(Nc2ccc(N=Nc3ccccc3)cc2)[C@@H](O)[C@@H](O)[C@@H]1O (stereo not given in full)	x	-42.8	10.6	2.9	4.8	-8.4	1.2	i
Clc1ccc(-c2nnc3n2CCCS3)cc1	-0.4	-49.5	1.0	0.8	-20.2	8.0	3.5	i
COc1ccc(OC)c(CCNC(=O)Cc2ccc(NC3=NC4CS(=O)(=O)CC4S3)cc2)c1 (stereo not given)	x	-16.0	-0.5	0.6	-9.9	-2.6	12.6	i
O=C(Nc1cccc(F)c1)C1CCCN(c2cnccn2)C1 (stereo not given)	x	-0.8	-1.6	-3.5	-12.6	1.1	-4.4	i
C/C=C/c1ccc(OCC(=O)Nc2ccncc2)c(OC)c1	-0.7	17.4	-2.7	-22.4	-3.7	-9.1	-0.6	i
COc1ccc(C)cc1NC(=O)c1ccc2c(c1)C(=O)N(Cc1ccncc1)C2=O	x	23.8	-3.6	-4.5	-9.3	x	x	x
